Screening data as filed in PubChem.
CBX7 AlphaScr: inhibitors of human CBX7 binding to H3K27me3 peptide; O95931; AlphaScreen His6-CBX7 / biotin-H3K27me3 peptide binding; hits give low values; actives 1.1% (n = 66,000); normalised signal (fraction of DMSO) (concentration not given with the values); in the data active means normalised signal below about 0.5;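 further: 100 nL library stock added to about 20 µL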
Target sequence (O95931 whole entry, looked up): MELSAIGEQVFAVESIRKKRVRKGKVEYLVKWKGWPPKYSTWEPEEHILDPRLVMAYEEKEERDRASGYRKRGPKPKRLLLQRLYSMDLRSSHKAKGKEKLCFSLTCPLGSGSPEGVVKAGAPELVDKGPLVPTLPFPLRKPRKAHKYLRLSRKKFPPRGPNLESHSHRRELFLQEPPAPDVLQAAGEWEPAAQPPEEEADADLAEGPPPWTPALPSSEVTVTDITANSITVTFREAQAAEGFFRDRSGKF
CBX7 AlphaScr z-score: second read-out of CBX7 AlphaScr, no call of its own (marks repeat the call); z-score; measured here: z-score of CBX7 signal; some inactives read as strong as hits; reference of the scale not given here;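 same signal on another scale; lower means less binding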
* hit, by the source's call; & = joins results of further samples. This is a subset (hit frequency here may not be typical).

SMILES | CBX7 AlphaScr | CBX7 AlphaScr z-score
O=C(CN1C(=O)CCSc2ccccc21)NCCN1CCCCCC1 | 1.1 | 2.6
COc1ccc(C2(C(=O)Nc3ccc(C)cc3)CCOCC2)cc1OC | 1.3 | 2.4
O=C(Nc1ccc2snnc2c1)NC1CCCCC1 | 1.1 | 3.8
Cc1cccc(C)c1NC(=O)C1(N(Cc2ccccc2)C(=O)c2ccc(-n3cnnn3)cc2)CCCC1 | 1 | 0.02
COc1ccc2c(c1)C(=O)C(C1(O)C(=O)N(C)c3ccccc31)CC2 (stereo not drawn) | 0.97 | -0.78
Cc1nc2c(C(=O)NCC3CCCO3)cnn2c(C)c1Cc1ccc(Cl)cc1 (stereo not drawn) | 1 | 0.053
CCOC(=O)c1ccc(NC(=O)CSc2nccn2-c2ccc(OCC)cc2)cc1 | 0.89 | -0.89
O=C(Nc1nccs1)c1ccc(Br)c(S(=O)(=O)N2CCOCC2)c1 | 1 | 0.32
CC1CCCN(c2nc(-c3ccccc3O)nc3ccccc23)C1 (stereo not drawn) | 0.79 | -2.4
CCOC(=O)N1CCc2c(sc(NCc3cccc(F)c3)c2C(=O)Nc2cc(OC)ccc2OC)C1 | 0.72 | -7.4
Cc1cccc(C)c1Nc1c(-c2ccccn2)nc2ccc(Br)cn12 | 0.44* | -0.98*
Cc1oc(-c2cccc(Cl)c2)nc1CN1CCC(C(=O)NCCC(C)C)CC1 | 1.3 | 2.7
CCCN(C(=O)Cc1c(C(=O)O)[nH]c2ccccc12)c1ccc(OCC)cc1 | 0.84 | -2.2
Cc1cc(C)nc(Nc2nc(C)c3cc4c(cc3n2)OCO4)n1 | 0.99 | -0.26
CCOC(=O)c1nnn(-c2nonc2N)c1CN1CCCCCC1 | 0.98 | -0.4
CCCCCn1c(CN2CCOCC2)nc2c1c(=O)[nH]c(=O)n2C | 1 | 0.29
O=C1NCC2=C1C(c1ccccc1)Nc1ccccc1N2 (stereo not drawn) | 1 | 1.2
Cc1ccc(C(C)C)c(OCCNC(=O)c2c(-c3ccccc3Cl)noc2C)c1 | 1.1&0.89 | 4.3&-0.13
CCOC(=O)c1cccc(NC(=O)CCc2c(C)nc3c(-c4ccc(F)cc4)c(C)nn3c2C)c1 | 1.1 | 2
O=C(Nc1ccc(F)cc1)N1CCN(c2ccc(C(F)(F)F)cn2)CC1 | 1 | 1.3

For convenience, 5 of the compounds above:
SMILES | CBX7 AlphaScr | CBX7 AlphaScr z-score
CC1CCCN(c2nc(-c3ccccc3O)nc3ccccc23)C1 (stereo not drawn) | 0.79 | -2.4
CCOC(=O)N1CCc2c(sc(NCc3cccc(F)c3)c2C(=O)Nc2cc(OC)ccc2OC)C1 | 0.72 | -7.4
Cc1cccc(C)c1Nc1c(-c2ccccn2)nc2ccc(Br)cn12 | 0.44* | -0.98*
Cc1oc(-c2cccc(Cl)c2)nc1CN1CCC(C(=O)NCCC(C)C)CC1 | 1.3 | 2.7
CCCN(C(=O)Cc1c(C(=O)O)[nH]c2ccccc12)c1ccc(OCC)cc1 | 0.84 | -2.2

Gathered by group, the entries above with an NH in an aromatic ring (two)
SMILES | CBX7 AlphaScr | CBX7 AlphaScr z-score
CCCN(C(=O)Cc1c(C(=O)O)[nH]c2ccccc12)c1ccc(OCC)cc1 | 0.84 | -2.2
CCCCCn1c(CN2CCOCC2)nc2c1c(=O)[nH]c(=O)n2C | 1 | 0.29

Another view of some results above:
Below each compound: CBX7 AlphaScr	CBX7 AlphaScr z-score
- COc1ccc(C2(C(=O)Nc3ccc(C)cc3)CCOCC2)cc1OC
    1.3	2.4
- CCCCCn1c(CN2CCOCC2)nc2c1c(=O)[nH]c(=O)n2C
    1	0.29
- O=C(CN1C(=O)CCSc2ccccc21)NCCN1CCCCCC1
    1.1	2.6
- Cc1ccc(C(C)C)c(OCCNC(=O)c2c(-c3ccccc3Cl)noc2C)c1
    1.1&0.89	4.3&-0.13

New compounds follow:
SMILES | CBX7 AlphaScr | CBX7 AlphaScr z-score
CCC(C(=O)NCCc1ccccc1)N1C(=O)COc2ccc(C(C)(C)C)cc21 (stereo not drawn) | 1.1 | 3
Cc1ccc(-c2nc3ccccc3s2)cc1NC(=O)c1cccc(Br)c1 | 1.1 | 3.4
CCC1Oc2ccc(C)cc2N(CC(=O)NC2CCCCC2C)C1=O (stereo not drawn) | 1.1 | 2.7
COC(=O)c1c(NC(=O)COc2ccc(C(C)C)cc2)sc2c1CCCC2 | 1.5 | 1.1
COc1ccccc1C(=O)NCCc1cc2c(C)ccc(C)c2[nH]c1=O | 1.1 | 0.14
CCOC(=O)c1cnc2c(C)cc(Cl)cc2c1NC1CCCCC1 | 0.97 | -0.12
COc1ccc2cc(-c3nnc(Nc4ccccc4)s3)c(=O)oc2c1 | 0.99 | -0.16
O=C(COc1ccc(Cl)cc1Cl)Nc1nc2ccccc2s1 | 1 | 0.087
O=C(CCCN1CCOC(c2ccccc2)C1)c1ccc(F)cc1 (stereo not drawn) | 0.97 | -1.1
COc1ccc2c(c1)CCc1c(C(=O)Nc3c(C)nn(Cc4ccccc4)c3C)noc1-2 | 0.98 | -0.47
Cc1cc2c(N3CCN(c4cccc(Cl)c4)CC3)ncnc2s1 | 1 | 1.6
Cc1nc2c(C(=O)NC3CC3)c[nH]n2c(=O)c1Cc1ccccc1F | 1 | 0.4
CC1(C)CC(=O)c2cc(OCC(=O)N3CCCC3)ccc2O1 | 0.99 | -0.41
COc1ccc(S(=O)(=O)N2CC=C(C(=O)O)CC2)cc1 | 1.1 | 2.9
COC(=O)c1cnn2c(C)c(Cc3cc(C)ccc3C)c(C)nc12 | 0.98 | -0.43
CN1CCN(c2ccccc2NC(=O)c2cc3c(s2)-c2ccccc2OC3)CC1 | 1.2 | 4.4
CCCOc1ccc(C(=O)Nc2cccc(-c3nc4ccccc4o3)c2)cc1 | 1 | 1.5
O=C(O)c1cccc(NS(=O)(=O)c2csc(C(=O)Nc3ccccc3)c2)c1 | 0.96 | -0.52
O=C(Nc1ccccc1)c1cnc2ccccn2c1=O | 0.86 | -2
COc1ccccc1NC(=O)c1cccc2c1C(=O)N(Cc1ccccn1)C2 | 0.92 | -1.6
CCCc1cc(C(=O)Nc2c(C)nn(Cc3ccc(Cl)cc3)c2C)no1 | 1 | 0.25
COc1ccc(N(C)S(=O)(=O)c2ccc3c(c2)CC(C)N3C(C)=O)c(OC)c1 (stereo not drawn) | 0.97 | -0.97
O=C(CCC1(C(=O)NCc2ccccc2)CCC(=O)NC1)NCc1ccccc1 (stereo not drawn) | 0.94&0.83 | -0.43&-2.6
CCOC(=O)c1ccc(NC(=O)CSc2nnc(-c3cccnc3)o2)cc1 | 1 | 0.51
CC(Oc1ccc(Cl)cc1Cl)c1nc(-c2ccc(NC(=O)c3cccnc3)cc2)no1 (stereo not drawn) | 0.76 | -2.4
CCOC(=O)c1cnc2c(C)cc(Cl)cc2c1Nc1ccc(C)cc1C | 1.2 | 1
CCc1cccc(C)c1Nc1c(-c2ccc(F)cc2)nc2nc(C)cc(C)n12 | 1 | 0.2
CCC(C(=O)NCCN1CCOCC1)n1ncc2ccccc21 (stereo not drawn) | 0.96 | -1
O=C(CN1CCN(Cc2ccccc2F)C1=O)N1CCOCC1 | 1.1 | 0.95
CCOc1cc2c(cc1OCC)C(c1ccc(OC)c(O)c1)NCC2 (stereo not drawn) | 1.1 | 2.2
CC(C)CCNC(=O)CN1CCN(Cc2ccccc2F)C1=O | 0.98 | -0.38
CC(C)(C)c1ccc(OCCCC(=O)Nc2ccc(S(=O)(=O)Nc3ncccn3)cc2)cc1 | 1.2 | 1.6
O=S(=O)(c1ccc(F)cc1)N(CCCN1CCOCC1)Cc1cccs1 | 0.85 | -1.7
CCn1cc(C(=O)NCCCN2CCN(C)CC2)c2cc(OC)c(OC)cc2c1=O | 1.1 | 1.2
COC(=O)c1ccc(-n2ncnc2-c2ccc(OCc3ccccc3)c(OC)c2)cc1 | 1 | 0.55
Cc1nc2ccc(S(=O)(=O)NC(C(=O)Nc3ccc4c(c3)OCCO4)C(C)C)cc2s1 (stereo not drawn) | 0.83 | -2.6
COc1cc(/C=C/c2ccc3ccccc3n2)ccc1O | 1.3 | 16
CN(C(=O)C1CC(c2ccc(F)cc2)=NO1)c1ccccc1 (stereo not drawn) | 1.1 | 0.78
CCN(CC)S(=O)(=O)c1ccc2c(c1)c(=O)c(C(=O)NCCc1ccccc1)cn2C | 1 | 0.68
Cc1nn(-c2ccc(Cl)c(Cl)c2)c(=O)c2ccccc12 | 1.1 | 1.7
CC1(C(=O)NC2CCCCCCC2)CCC(=O)N1Cc1ccc(F)cc1 (stereo not drawn) | 1 | 0.43
CCc1ccccc1NC(=O)CCc1c(C)nc2c(-c3ccccc3)c(C)nn2c1C | 1.1 | 2.2
CCc1ccc2nc(Nc3nc(CSc4nnc(C)s4)cc(=O)[nH]3)nc(C)c2c1 | 0.98 | -0.86
O=C(CN1C(=O)COc2ccc(S(=O)(=O)N3CCOCC3)cc21)N1CCC(Cc2ccccc2)CC1 | 0.99 | -0.28
COc1ccccc1CNC(=O)COc1ccc2c(c1)C(=O)CC1(CCN(C(C)=O)CC1)O2 | 1.1 | 1.7
Cc1ccc2c(c1)NC(=O)C(CC(=O)Nc1c(C)cccc1C)O2 (stereo not drawn) | 1.1 | 2.9
Cc1nccc2[nH]c(=O)c(C(=O)NCCC3=CCCCC3)cc12 | 1 | 0.19
Cc1nc2cc(-c3cccc(F)c3)nn2c(C)c1CCC(=O)NCc1ccccc1Cl | 1 | 0.59
COc1ccccc1N1CCN(c2ncc(C(=O)NCc3cccnc3)c3ccccc23)CC1 | 0.92 | -1.1
Cc1ccc(-c2cc(C(=O)Nc3ccccc3Cl)c3cccc(Cl)c3n2)cc1C | 0.99 | -0.13
CC(C)Cc1cc(C(=O)Nc2ccc3c(c2)OCO3)no1 | 0.97 | -1
Cc1[nH]c2ccc(OC(F)(F)F)cc2c1CCNC(=O)c1c(Cl)cnn1C | 0.81 | -2.8
Clc1cccc(N2CCN(c3nc4cccnc4s3)CC2)c1 | 0.99 | -0.29
COc1ccc(C)cc1NS(=O)(=O)c1ccc2c(c1)CCC(=O)N2 | 0.74 | -5.9
CC(NC(=O)c1nn2c(C(F)(F)F)cc(-c3ccc(Cl)cc3)nc2c1Cl)c1ccccc1 (stereo not drawn) | 0.96 | -0.48
Cc1ccc(C)c(N2CCN(C(=O)c3cccc(NC4=NC5CS(=O)(=O)CC5S4)c3)CC2)c1 (stereo not drawn) | 1.1 | 0.85
COc1ccc(NC(=O)c2oc3ccc(S(=O)(=O)N4CC(C)CC(C)C4)cc3c2C)c(OC)c1 (stereo not drawn) | 1 | 0.79
Cc1nc2nc(SCC(=O)NC3CCC(C)CC3)nn2c(C)c1Cc1ccccc1 (stereo not drawn) | 0.81 | -0.22
Cc1ccc2c(c1)N(CCCC(=O)N1CCOCC1)C(=O)CO2 | 1 | -0.046
N#Cc1ccc(NC(=O)c2cc(-c3ccc(F)cc3)on2)cc1 | 1 | 0.011

Next part
SMILES | CBX7 AlphaScr | CBX7 AlphaScr z-score
COc1ccccc1-c1cc(C(=O)N2CCCCC2C)no1 (stereo not drawn) | 0.9 | -0.59
CCCCc1nn(-c2cc(Cl)ccc2OC)c2c1C(=O)CCC2 | 1 | 0.2
COc1cccc(C(=O)Nc2ccc3nc(N4CCN(c5ncccn5)CC4)cc(C)c3c2)c1 | 1 | 0.067
CCC(=O)N1CCc2cc(S(=O)(=O)N3CCOCC3)ccc21 | 1.1 | 1
COCc1ccc2c(c1)c1c3n2CCNC3CCC1 (stereo not drawn) | 0.85&1.2 | -1.5&1.9
Cc1cc(N2C(=O)c3ccc(C(=O)N4CCc5ccccc5C4)cc3C2=O)no1 | 1 | 0.25
COCCNC(=O)c1nn(C)c(=O)c2ccccc12 | 1.1 | 2.3
COc1ccc(OC)c(-c2nnc(SCC(=O)N3CC(C)CC(C)C3)o2)c1 (stereo not drawn) | 0.99 | -0.31
COCCCNC(=O)c1cn(C2CCCC2)c(=O)c2c1c1ccccc1n2C | 1 | 0.67
CCCCNC(=O)CCCCCn1c(=O)[nH]c2ccsc2c1=O | 1.2 | 1.5
CCCC(=O)NCCCc1nc2ccccc2n1CC(C)C | 1.2 | 2.5
COc1ccccc1CNC(=O)Cn1c2c(c(-c3ccccc3Cl)cc1=O)CCC2 | 0.64 | -5
CC(C)c1ccc(OCC(=O)Nc2nccs2)cc1 | 1 | 0.4
Cc1cc(Cl)ccc1OCC(=O)N(Cc1nc(-c2ccccc2)no1)C(C)C | 1 | 0.63
Cc1ccccc1NC(=O)Cn1nc(Cc2cccnc2)c2ccccc2c1=O | 1 | -0.0036
Cn1c2ccccc2c2c(C(=O)N3CCCC3)cn(C3CCCC3)c(=O)c21 | 1 | 0.49
COCCCNC(=O)C1CC(=O)N(CCc2ccc(OC)c(OC)c2)C1 (stereo not drawn) | 0.99 | -0.34
COc1ccc(OC)c(-c2cc(C(=O)NC(C)c3ccccc3)no2)c1 (stereo not drawn) | 1 | 0.59
COc1ccc(NC(=O)Cn2cnc3c(nnn3-c3ccc(OC)cc3)c2=O)cc1 | 0.93 | -1.4
CC(C)(C)c1ccc(S(=O)(=O)N2CCc3nc4ccccc4c(C(=O)O)c3C2)cc1 | 0.82 | -1.4
Cc1ccc2c(c1)C(c1ccc(F)cc1)N(C(=O)c1ccc(F)cc1)CC(=O)N2 (stereo not drawn) | 0.81 | -3.4
CCOC(=O)c1cc(-c2ccccc2)n(CCC(=O)NCc2ccc3c(c2)OCO3)c1C | 0.92 | -1.4
O=C(Nc1ccc(Cl)cc1)Nc1ccccc1C(=O)Nc1ccccc1 | 1.2 | 1.6
CCN1CCN(c2cc(C)c3cc(NC(=O)c4ccc(C(C)(C)C)cc4)ccc3n2)CC1 | 2 | 10
Cc1ccc(-n2cc(-c3ccccc3)nc2S(=O)(=O)CC(=O)Nc2ccc(Cl)cc2)cc1 | 0.93 | -0.64
O=C(NC1CC1)c1cc2c(s1)-c1ccccc1OC2 | 1.1 | 2.8
